HCMV UL50-53 inh: inhibitors of HCMV UL50-UL53 interaction, biochemical, HTRF; normalized percent inhibition; HCMV UL50-UL53 nuclear egress complex (human cytomegalovirus); inhibition, % (concentration not given with the values); hit rate 0.15% among 190,000; AID 1918969, 2023;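 active means both replicates at 50% or more, plus weaker picks with an unusually low signal ratio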;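 further: stock transfer was 100 nL into about 20 µL; 0% = negative control wells and 100% = wells with untagged competitor protein; inactives centre near -12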
* = called active by the depositor; & = joins results of further samples. Not all compounds are listed; rates above refer to the full screens.

Sample of the layout, three compounds:
SMILES	HCMV UL50-53 inh
O=S(=O)(c1ccc(-c2nc3ccccc3s2)cc1)N1CCCC1	-1.3
COc1ccc2cc(CCNC(C)=O)c(=O)[nH]c2c1	-12.3
C=CCn1c(COc2ccc(OC)cc2)nc2ccccc21	-13.7

The list itself, from the first entry:
SMILES	HCMV UL50-53 inh
O=S(=O)(c1ccc(-c2nc3ccccc3s2)cc1)N1CCCC1	-1.3
COc1ccc2cc(CCNC(C)=O)c(=O)[nH]c2c1	-12.3
C=CCn1c(COc2ccc(OC)cc2)nc2ccccc21	-13.7
Cc1ccc2c(C(=O)N3CCCCC3C)cc(-c3cnn(C(C)C)c3)nc2c1 (stereo not given)	-2.4
CSCCC(NC(C)=O)C(=O)O (stereo not given)	-17.1
CC(=O)Nc1ccc2nc(NC(=O)c3ccc(C#N)cc3)sc2c1	-26.2
COc1cccc(NC(=O)CSc2nnc3ccccn23)c1	-4.6
CCOC(=O)c1c(N)sc(C)c1C	-13.3
Nc1nc(NS(=O)(=O)c2ccccc2)ns1	-12.3
C(=NCc1cccnc1)c1ccc2c(c1)OCO2	-27.5
O=c1oc2ccccc2c(O)c1/C=N/c1ncccn1	-17.7
O=C(/C=C1\SC(=O)NC1=O)Nc1ccccc1	-18.2
O=C(CCCCC(=O)Nc1c(I)cc(I)c(C(=O)O)c1I)Nc1c(I)cc(I)c(C(=O)O)c1I	-21.4
C=CCNC(=O)c1cccnc1-c1ccc(OC)c2ncccc12	-22.6&-22.6
OC1(c2ccccc2)CCN(Cc2ccc(F)cc2Cl)C1 (stereo not given)	4.8
CC(=O)N/C(=C\c1ccccc1)C(=O)Nc1cc(C)cc(C)c1	-5.0
O=C(NCCn1cc(SCC(=O)N2CCOCC2)c2ccccc21)c1ccccc1	-10.3
O=C(CC1Sc2ccccc2NC1=O)Nc1ccc2c(c1)OCO2 (stereo not given)	-0.7
Cn1c(=NC(=O)c2ccco2)sc2cc(S(C)(=O)=O)ccc21	11.3
CC(C)CNC(=O)[C@@H]1C[C@H](CN2CCOCC2)CN(Cc2ccncc2)C1	-5.8
COc1cc2c(N3CCN(C(=O)Nc4ccc(OC(C)C)cc4)CC3)ncnc2cc1OCCCN1CCCCC1	1.1&-3.5&13.3&8.9&-65.1
CC(=O)N=c1scc(-c2ccccc2)n1-c1ccc(C)cc1	-14.4
CCOc1cc(C(C#N)N2CCOCC2)ccc1OC (stereo not given)	-9.3
Cc1cc2cc(CNC(=O)Cc3cccs3)ccc2[nH]1	-8.3
CN(CCc1ccccn1)C(=O)c1ccc2sc(N)nc2c1	-24.0&-24.0
Later entries.
SMILES	HCMV UL50-53 inh
CC(C)(C)C(=O)Nc1c2c(nn1-c1ccc(F)cc1)CS(=O)(=O)C2	-17.7
NC(=O)c1cccc(-c2cc(Oc3ccc(OC(F)(F)F)cc3)ncn2)c1	5.8
CC(C)N=Cc1c(Cl)nc2sccn12	-9.6
c1ccc(-n2cnnc2SCc2cn3ccsc3n2)cc1	-13.0
CCC1CCCCN1S(=O)(=O)c1ccc2cc(OC)ccc2c1 (stereo not given)	-18.1
COC(=O)c1ccc(OCC(O)CN2C(C)CCCC2C)cc1 (stereo not given)	3.4
CCN(CCO)CCCOc1ccc2c(Nc3cc(CC(=O)Nc4cccc(F)c4)[nH]n3)ncnc2c1	-4.8&8.3&20.6&8.4&10.3
Cc1cc(C)c(C)c(S(=O)(=O)N2CC(C)OC(C)C2)c1C (stereo not given)	-9.7
CCC(=O)O[C@@]1(C(=O)CCl)[C@@H](C)C[C@H]2[C@@H]3CCC4=CC(=O)C=C[C@]4(C)[C@]3(F)[C@H](O)C[C@@]21C	2.8
COc1cc(/C=C/C(=O)N2CCC=CC2=O)cc(OC)c1OC	-12.2
Cc1ccc(C(=O)OCc2nc3ccccc3s2)cc1	-26.0
Cc1noc(-c2ccc(O)cc2O)c1-c1ccc2c(c1)OCCCO2	-7.9
O=c1cc(-c2ccc(O)cc2)oc2c(C3O[C@H](CO)[C@@H](O)[C@H](O)[C@H]3O)c(O)cc(O)c12 (stereo not given in full)	-32.3
CCNC(=O)C1OC(n2cnc3c(N)nc(NCCc4ccc(CCC(=O)O)cc4)nc32)C(O)C1O (stereo not given)	2.0
CCC(=O)Nc1c(-c2ccccc2)c2cc(Br)ccc2[nH]c1=O	-20.2
COc1cc(/C=C2/SC(=Nc3ccccc3C(F)(F)F)NC2=O)ccc1O	-8.4
CC1CCN(S(=O)(=O)c2ccc(Cl)cc2)CC1	-17.9
CCOc1c2c(c(OCC)c3ccccc13)C(=O)N(c1ccc(CC(=O)NS(=O)(=O)c3ccccc3)cc1)C2	-14.5&-14.5
NC(=O)c1ccc(-c2nc(-c3ccc4c(c3)OCCO4)c(-c3ccccn3)[nH]2)cc1	-21.5&-15.3&-4.5&-4.5
C=CC(=O)Nc1cccc(Nc2nc(Nc3ccc(NC4CN(CCF)C4)cc3OC)ncc2C(F)(F)F)c1	11.0
C[n+]1ccc(/C=C/c2c[nH]c3ccccc23)cc1	-23.9&-23.9
O=C(c1ccc(F)cc1)c1c[nH]c(C(=O)NCc2ccc(F)cc2)c1	-7.1
CC(C)N(CCC(c1ccccc1)c1cc(CO)ccc1O)C(C)C (stereo not given)	1.5
CCN1CCN(CC(O)COc2cccc(C)c2)CC1 (stereo not given)	-12.7
CCOC(=O)N1CCN(CC(O)COc2ccc(-c3ccccc3)cc2)CC1 (stereo not given)	-4.1
Following part.
SMILES	HCMV UL50-53 inh
N#CC1=C(SCC(=O)NCc2ccccc2)NC2=C(C(=O)CCC2)C1c1ccco1 (stereo not given)	-20.6
Cc1ccc2cc(CCNC(=O)C3CCCC3)c(=O)[nH]c2c1	-15.1
Cc1nc2ccc(NC(=O)Nc3ccnc4cccnc34)cc2o1	-4.1
COC(=O)C(C)Sc1nc2c([nH]c3ccccc32)c(=O)n1-c1cc(C)cc(C)c1 (stereo not given)	-6.7
C[n+]1ccn(-c2ccccc2C#N)c1	-12.2
O=C(O)CCC/C=C\C[C@@H]1[C@@H](/C=C/[C@@H](O)Cc2ccccc2)[C@H](O)C[C@@H]1O	-27.7&-27.7
CC(=O)[C@H]1[C@H](C#N)C[C@H]2[C@@H]3CC=C4C[C@@H](O)CC[C@]4(C)[C@H]3CC[C@@]21C	-3.4
Cc1noc(C)c1COc1ccc2ccc(=O)oc2c1	-11.3
OC(COc1ccc2c(c1)CCC2)CN1CCCCC1 (stereo not given)	-14.0
NC1=NC(=O)C(CC(=O)Nc2ccc(Cl)c(C(F)(F)F)c2)S1 (stereo not given)	-13.5
CCOC(=O)CSc1nc(C)cc(=O)[nH]1	-8.2
O=C(COc1ccccc1)NCc1ccc2[nH]c3c(c2c1)CCCC3	-1.8
CCc1ccc(NC(=O)CSC2=C(C#N)C3(CCCCC3)C(C#N)C(=O)N2)cc1 (stereo not given)	-11.4
CC1(C)Oc2ccc(C#N)cc2[C@@H](OC2=CC(=O)CC2)[C@@H]1O	-12.6
O=C(O)CC(O)CC(O)C=Cc1c(C2CC2)nc2ccccc2c1-c1ccc(F)cc1 (stereo not given)	-29.4&-17.8
N#CC1=C(C2CC2)CC(c2ccccc2)C(C#N)=C1N (stereo not given)	-36.5
Cc1sc(NC(=O)c2ccco2)c(C(c2cccnc2)N2CCCCC2)c1C (stereo not given)	1.0&-4.0
CCCCn1c(CNC(=O)c2ccc(OC)cc2)nnc1SC	-24.3
CCC[C@@H]1C[C@@H](C(=O)N[C@@H]([C@H]2O[C@H](SC)[C@H](O)[C@@H](O)[C@@H]2O)[C@@H](C)O)N(C)C1	-11.9&-40.6
COc1ccccc1C(=O)N1CCN(C(=O)c2nc3ccccc3c(=O)[nH]2)CC1	-9.2
O=C1OC(Nc2ccccc2)c2ccccc21 (stereo not given)	-15.7
Cc1cccc(-n2cnc3cc(N)ccc32)c1	-5.0
Cc1nc2ncnn2c(C)c1Cc1c(Cl)cccc1Cl	-5.3
CC(=O)Nc1c(-c2cccs2)nc2ncccn12	-26.7
Cc1ccc2nc(-c3cnc(C(C)(C)C)nc3)cc(C(=O)N(C)C(C)C)c2c1	-22.2
Continuation.
SMILES	HCMV UL50-53 inh
Nc1ccc(Sc2nc3ccccc3s2)c(Cl)c1	-23.0
CC(C)Sc1nnc(NC(=O)C(C)C)s1	-19.2
C=CC(=O)Nc1ccc(Nc2nc(NC3CCC(N(C)C)CC3)nc3c2ncn3C(C)C)cc1 (stereo not given)	-9.7
Cc1cccc(-n2cnc3cc(C(=O)N4CCCCC4)ccc32)c1	-9.7
Cc1ccc2c(c1)c1c(n2CC(O)Cn2ccnc2C)C(=O)CCC1 (stereo not given)	-35.6
NS(=O)(=O)c1ccc(N2C(=O)C3C4C=CC(C4)C3C2=O)cc1 (stereo not given)	-14.7
NC(=O)CC1Nc2ccccc2NC1=O (stereo not given)	-2.8
COc1cccc(S(=O)(=O)N2CCCC2)c1	-6.9
S=C(NCc1ccc2c(c1)OCO2)N1CCN(c2ncnc3c2oc2ccccc23)CC1	-0.9&-15.9&-8.9&-5.8
CCCCC/C=C\C/C=C\C/C=C\C/C=C\CCCC(=O)C(F)(F)F	-3.7&-3.7
CCn1nccc1NC(=O)Cn1cc(-c2ccc(C(=O)N3CCCC3)cn2)cn1	-5.5&-5.5
COc1ccccc1NC(=O)c1cc(S(=O)(=O)N2CCCCC2)ccc1F	-1.1
COc1ccc(NC(=O)CSc2c[nH]c3ccccc23)c(OC)c1	-3.2
COc1ccc(C(=O)NCCn2ccc3ccccc32)c(OC)c1	-9.6
CCN1CCN(Cc2ccc(NC(=O)c3ccc(C)c(NC(=O)CC4NC(=O)C(Cc5ccccc5)NC4=O)c3)cc2C(F)(F)F)CC1 (stereo not given)	-13.1
O=C(COC(=O)c1cccs1)c1ccc(Cl)cc1	7.8
COc1ccc(CN2C(=O)N(C)C3(CCN(Cc4nc(-c5ccccc5)cs4)CC3)C2=O)cc1	1.3
O=C(CSc1nc2ccccc2s1)c1ccccc1	-3.7
O=C(C=CC=Cc1ccc2c(c1)OCO2)N1CCCCC1	-87.5
CCNc1c2c3c(cccc3n(C)c1=O)C(=O)c1ccccc1-2	-16.8
CCCCCCCCCCCCCCCC(=O)OC[C@@H](O)COP(=O)([O-])OCC[N+](C)(C)C	-19.4&-19.4
O=C(CSc1ncnc2ccccc12)N1CCCC1	0.2
COC(=O)[C@@H]1CC2=CC(=O)CC[C@]2(C)[C@@]23O[C@@H]2C[C@@]2(C)[C@@H](CC[C@@]24CCC(=O)O4)[C@H]13	-1.8
CC1(C)CC(=O)c2sc(NC(=O)C3=COCCO3)nc2C1	-3.4
CN1CC(=O)N2C(Cc3c([nH]c4ccccc34)C2c2ccc3c(c2)OCO3)C1=O (stereo not given)	-47.6

Sorted by SMILES length (descending): some entries from above.
SMILES	HCMV UL50-53 inh
CCN1CCN(Cc2ccc(NC(=O)c3ccc(C)c(NC(=O)CC4NC(=O)C(Cc5ccccc5)NC4=O)c3)cc2C(F)(F)F)CC1 (stereo not given)	-13.1
COc1ccc(CN2C(=O)N(C)C3(CCN(Cc4nc(-c5ccccc5)cs4)CC3)C2=O)cc1	1.3
COc1ccccc1NC(=O)c1cc(S(=O)(=O)N2CCCCC2)ccc1F	-1.1
CC1(C)CC(=O)c2sc(NC(=O)C3=COCCO3)nc2C1	-3.4

Further structures:
SMILES	HCMV UL50-53 inh
CCOc1cc2oc(=O)cc(C)c2cc1Cl	-19.8
CC(C)N(C(=O)C[n+]1ccsc1N)c1ccccc1	-26.3
CCN1CCN(CC(O)COc2ccc(-c3ccccc3)cc2)CC1 (stereo not given)	-3.2
NCCCCCc1cnc[nH]1	-3.2
CCCCN1C(=O)C2ON(c3ccccc3)C(c3cccs3)C2C1=O (stereo not given)	-0.4
Cc1oc2c(cc(O)c3ccccc32)c1C(=O)O	-21.8
CC(C)CCCC(C)NC(C)C (stereo not given)	-65.3
COc1cc(OC)c2c(-c3ccccc3)cc(=O)oc2c1	-9.4
CC[C@]1(O)CC2CN(CCc3c([nH]c4ccccc34)[C@@](C(=O)OC)(c3cc4c(cc3OC)N(C=O)C3[C@@](O)(C(=O)OC)C(OC(C)=O)[C@]5(CC)C=CCN6CC[C@]43C65)C2)C1 (stereo not given in full)	-53.3
CCCCC[C@H](O)/C=C/[C@H]1CC[C@@H](O)[C@@H]1C/C=C\CCCC(=O)O	-14.6&-14.6
COC(=O)c1nc(-c2ccccc2)oc1N(C)C	-8.8
Cn1nc(C(C)(C)C)cc1C(=O)Nc1cccnc1	-8.5
N#CC(=C1SCC(c2ccc(Cl)cc2Cl)S1)n1ccnc1 (stereo not given)	-20.8
O=C(CSCc1ccccc1)N1CCc2ccccc21	-11.8
O=c1c2ccccc2oc2ccccc12	-8.2
CCOC(=O)CSc1nnc(NC(C)=O)s1	9.4
Cc1ccc(Nc2nnc(-c3cc4cc(Cl)ccc4oc3=O)s2)cc1	11.4
c1ccc(OCc2nc3ccccc3[nH]2)cc1	-1.2
O=C(O)CNC(=O)NC1CCCCC1	-19.6
CCCCC(CO)NC(C)CCc1ccc(OC)cc1 (stereo not given)	-16.7
CCOC(=O)CSc1nc2c([nH]c3ccccc32)c(=O)n1-c1ccc(C)cc1	-3.1
COC(=O)Cn1c(=NC(=O)/C=C/c2cccs2)sc2cc(Br)ccc21	-12.8
O=C1/C(=C/c2cccs2)SC(=S)N1c1cccc(C(F)(F)F)c1	12.0
O=C(Nc1nc(-c2ccncc2)cs1)C1CCCCC1	-21.4
CCn1cc(SC(=N)N)c2ccccc21	-10.2
Later entries:
SMILES	HCMV UL50-53 inh
Nc1cc(C(F)(F)F)c(-c2cc(N3CCOCC3)nc(N3CCOCC3)n2)cn1	-1.5
Cc1ccc2c(CC(=O)N3CC(=O)N(CC(C)C)CC(OCc4ccccn4)C3)cc(=O)oc2c1 (stereo not given)	-1.3
CCCc1ccc(OCC(O)CN2CCCCC2)cc1 (stereo not given)	-18.8
CCOc1cc(N2CCOCC2)c(OCC)cc1NC(=O)C(C)(C)C	14.1
CCN1C(=O)c2cccc3c(NC(=O)c4ccco4)ccc1c23	-69.7
COc1ccccc1NC(=O)c1ccc(C)cc1	4.7
Cn1c(=O)c2c(nc(CN3CCCCC3)n2CC(N)=O)n(C)c1=O	5.6

3 entries drawn at random from the list so far, as already listed:
SMILES	HCMV UL50-53 inh
CCCc1ccc(OCC(O)CN2CCCCC2)cc1 (stereo not given)	-18.8
CCN1C(=O)c2cccc3c(NC(=O)c4ccco4)ccc1c23	-69.7
Cn1c(=O)c2c(nc(CN3CCCCC3)n2CC(N)=O)n(C)c1=O	5.6
